Vaccinia Venus: vaccinia inhibition (Venus reporter) | Vaccinia virus Venus reporter expression, fluorescence | Potency, µM (titrated, usually from 36.5 µM), for the others: at the top dose activity change, negative = inhibition, actives largely listed as inhibitors | actives 0.46% (n = 330,000); active means well fitted inhibition curve with a large enough effect; inconclusive means small, poorly fitted or top-dose-only effect; inactive means no such curve, though single readings can be large or run the other way; tested in A549 cells; further: nearly all actives have a fitted effect of over 30% in size; inactives centre near -10
Vaccinia mCherry: inhibitors of vaccinia virus infection (mCherry reporter signal). Potency, µM (doses to about 36.5 µM), for the others: top-dose activity change, negative = inhibition, most hits filed as inhibitors. Vaccinia virus mCherry reporter infection, fluorescence; about a quarter of the inactives have no number. actives 0.63% (n = 310,000). AID 720579; active = well fitted inhibition curve with a large enough effect; inconclusive = small, poorly fitted or top-dose-only effect; inactive = no such curve, though single readings can be large or run the other way; tested in A549 cells; further: nearly all actives have a fitted effect of over 35% in size; inactives centre near -10
Numbers without * were called inactive; i = inactive; ? = inconclusive; · = no result given; & = joins results of further samples; [ ] = another dose, or the depositor's remark. On the % scale 0 is the no-effect control and ±100 the full control effect; potency means the concentration at half of the fitted maximal effect. Compounds as they come; about 0.87% have a hit in one of these screens.

Every second line gives: Vaccinia Venus	Vaccinia mCherry
CSc1ccc(S(=O)(=O)NCC(=O)OC2CCOC2=O)cc1[N+](=O)[O-] (stereo not drawn)
  -15%	-30%
O=C(COCc1cc(-c2ccc3c(c2)OCO3)on1)Nc1cc(Cl)ccc1O
  -4%	-11%
CCS(=O)(=O)N1CCC(C(=O)NCCN2CCN(Cc3ccccc3)CC2)CC1
  -4%	-1%
Cc1cccn2c(=O)nc(SCC(=O)N3CCC(C)CC3)nc12
  -6%	-9%
CC(CNC(=O)c1cc(Cl)ccc1[N+](=O)[O-])NC(=O)c1cc(Cl)ccc1[N+](=O)[O-] (stereo not drawn)
  ?	i
Fc1ccc(Oc2ccnc(Cl)n2)c(Cl)c1
  -9%	-3%
CCCCC/C=C\C\C=C/C=C/C=C/[C@@H](SC[C@H](NC(=O)CC[C@H](N)C(=O)O)C(=O)NCC(=O)O)[C@@H](O)CCCC(=O)O
  -15%[0.293 µM]	-3%[0.293 µM]
O=C(Oc1coc(CSc2nnc(NC(=O)c3cccs3)s2)cc1=O)c1ccccc1
  -11%	-16%
CCCN1CCC(=NNC(=O)c2ccc(Br)o2)CC1
  -17%	-16%
CC1Cc2ccccc2N1C(=O)Cn1c(=O)oc2cc(S(=O)(=O)N3CCCCC3)ccc21 (stereo not drawn)
  -20%	i
CC(C)CCn1c(SCCc2ccccc2)nc2c1c(=O)[nH]c(=O)n2C
  -13%	·
CCOC(=O)c1c(NC(=O)COC(=O)CCNS(=O)(=O)c2ccccc2)sc(C(=O)N(C)C)c1C
  -1%	-13%
Cn1c(NCc2ccccc2F)nc2ccccc21
  -9%	-16%
O=C1CNC(c2ccccc2)C(c2ccccc2)N1 (stereo not drawn)
  -5%	i
Cc1ccc(C(=O)c2ccc([N+](=O)[O-])cc2)c(C)c1
  ?	·
Cc1ccccc1OCc1nnc(SCc2cc(=O)c3cc(F)ccc3[nH]2)n1C
  -8%	-12%
COc1ccc(NC(=O)COc2ccccc2C#N)c(S(=O)(=O)N2CCCCC2)c1
  ?	·
CC(Cc1cccnc1)NC(=O)c1cc(COc2ccc(F)cc2F)on1 (stereo not drawn)
  ?	-15%
O=C(/C=C\c1ccccc1)Oc1cccc2cccnc12
  ?	-29%
O=C(Nc1ccccc1)C1=C(c2ccccc2)S(=O)(=O)CCS1(=O)=O
  ?	?
N#CCCN(Cc1ccccc1)C(=O)c1cccs1
  -6%	i
CC(NC(=O)c1cc2c(=O)n3ccccc3nc2n(C(C)C)c1=N)c1ccccc1 (stereo not drawn)
  -7%	-17%
CCc1nc2c(cnn2-c2ccc(F)cc2)c(=O)n1-c1ccc(N2CCC(C)CC2)cc1
  ?	?
COC(=O)C1=C[C@@H](C(=O)OC)C2C3=C(C(=O)C24CCCCC4)[C@H](C)n2c(=O)n(-c4ccccc4)c(=O)n2[C@@H]3C1 (stereo partly drawn)
  -10%	21%
COc1cccc(CN2C(=O)C3(SCC(=O)N3c3ccc(C(C)C)cc3)c3ccccc32)c1 (stereo not drawn)
  -7%	-26%
COc1ccc(C(=O)N2CCN(c3cnn(-c4ccccc4)c(=O)c3Cl)CC2)cc1
  -2%	-6%
CCOC(=O)C1CCCN(C(=O)COc2ccc(S(=O)(=O)N(CC)c3ccccc3)cc2)C1 (stereo not drawn)
  -6%	-17%
CCOC(=O)C1CCN(Cc2cn3c(-c4ccc(OC)cc4)nnc3s2)CC1
  10%	13%
COc1ccccc1CN1CC(C(=O)NCCc2ccc(Cl)cc2)CC1=O (stereo not drawn)
  -7%	-2%
Cc1cccc(NC(=O)c2ccc3c(c2)CCN3S(C)(=O)=O)c1
  -17%	-1%
CCNC(=O)/C(C#N)=C/c1c(N2CCN(c3ccccc3)CC2)nc2c(C)cccn2c1=O
  -11%	-2%
C/C=C/c1ccc(OCC(=O)N(CCOC)c2c(N)n(CCCC)c(=O)[nH]c2=O)c(OC)c1
  -12%	-13%
Cc1ccc(CN2C(=O)c3ccccc3NC2c2ccccn2)cc1 (stereo not drawn)
  -1%	-8%
COc1cc(/C=C/C(=O)O)ccc1OCc1ccccc1C#N
  -11%	-9%
Cc1ccc2nc(-c3ccccc3)cc(C(=O)N3CCN(c4ccccc4O)CC3)c2c1
  ?	-23%
CCCCn1c(=O)c(C=Nc2cccnc2Cl)c(O)n(CCCCl)c1=O
  7%	i
Cc1nc(NC(=O)c2ccccc2)sc1-c1cc(C(=O)N2CCOCC2)nn1Cc1ccccc1
  -26%	-21%
O=C1CCC(=O)N1Cc1c(Cl)cccc1Cl
  -6%	i
COc1ccccc1CNC(=O)C1CCN(S(=O)(=O)c2cccc3cccnc23)CC1
  -9%	8%
CS(=O)(=O)N(CC(=O)NCc1ccccc1)C1CCCCC1
  -12%	-13%
O=C(CSc1nnc(-c2ccccc2)c(-c2ccccc2)n1)Nc1ccccc1Cl
  12%	4%
O=P1(NCCCl)OCCCN1CCCl (stereo not drawn)
  -7%	i
CN(C)C(=O)C1C2NC(=S)N(c3cccc(Cl)c3)C1(C)Oc1ccc(Cl)cc12 (stereo not drawn)
  -20%	-25%
COC(=O)c1ccc(Nc2c([N+](=O)[O-])ccc3nonc23)cc1
  -6%	-12%
COc1ccc2nc(NC(=O)c3nc(S(=O)(=O)Cc4ccc(C)cc4)ncc3Cl)sc2c1
  -6%	i
CN1/C(=C\C(=O)COC(=O)CNC(=O)c2ccccc2F)C(C)(C)c2ccccc21
  3%	i
CCc1cc(C(=O)N2CCN(C(=O)c3ccccc3)CC2)sc1C
  -13%	-24%
C#CCOCCOCCOCCNc1nc(N2CCN(C(=O)[C@H]([C@@H](C)CC)n3cc(CCCN=C(N)N)nn3)CC2)nc(N2CCN(C(=O)[C@H](Cc3ccc(O)cc3)n3cc(CCO)nn3)CC2)n1
  1%	-20%
Cc1cccc(NC(=S)N(CCCN2CCOCC2)Cc2ccco2)c1
  4%	-5%
Cc1ccc(S(=O)(=O)N2C3CCCCC3O[C@H]2CC(=O)OCc2ccccc2)cc1 (stereo partly drawn)
  -7%	-25%
COc1cc(C2c3[nH]c4ccccc4c3CC3COC(=O)N32)cc(OC)c1O (stereo not drawn)
  -47%	?
COC(=O)C(CCCCNC(=O)c1ccc([N+](=O)[O-])cc1)NC(=O)c1ccc([N+](=O)[O-])cc1 (stereo not drawn)
  -6%	i
O=C(NCc1ccccc1)C1=C[C@@H](c2ccc(C(F)(F)F)cc2)C[C@@H](OCCCCO)O1
  -9%	0%
O=C(CC1CC2CCC1C2)Nc1nc(-c2ccccn2)cs1 (stereo not drawn)
  -14%	-16%
Cc1ccc(Cc2nc3ccccc3nc2SCC(=O)Nc2ccc3c(c2)OCO3)cc1
  -23%	-27%
CNC(=O)[C@H](Cc1c[nH]c2ccccc12)NC(=O)[C@@H](CC(=O)NO)CC(C)C
  -4%[60.7 µM]	-15%[60.7 µM]
CC(C)CCNC(=O)NC(=O)CSc1nnc(COc2ccccc2Cl)o1
  -7%	-7%
CCOc1ccc(CNC(=O)CCCn2nc(C)c3sc4ccccc4c3c2=O)cc1
  -19%	-20%
Cc1cc(C)cc(NS(=O)(=O)c2cc(Br)cnc2N)c1
  -26%	-30%
Cc1ccc2c(CC(=O)N3CCN(c4cccc(Cl)c4)CC3)coc2c1
  -4%	-11%

More entries
Every second line gives: Vaccinia Venus	Vaccinia mCherry
COc1ccc(N2CCN(C(=O)C(=O)c3cn(CC(=O)N4CCCCCC4)c4ccccc34)CC2)cc1
  -5%	-10%
CC(O/N=C/c1ccccc1OC(F)F)C(=O)Nc1cccc(S(=O)(=O)N2CCOCC2)c1 (stereo not drawn)
  -9%	i
CC(NC(=O)CSc1n[nH]c(-c2ccccc2)n1)c1nc2ccccc2n1C (stereo not drawn)
  -11%	-2%
COc1ccc(-c2nnc(SCC(=O)c3ccc([N+](=O)[O-])cc3)o2)cc1OC
  4%	-8%
Cc1ccc2nc(NC(=O)c3cc(=O)c4cc(Cl)ccc4o3)sc2c1
  7%	8%
Cc1nn(C)c2ncc(C(N)=O)c(Oc3cccnc3)c12
  0%[7.34 µM]	i[7.34 µM]
O=C(CCCn1c(=O)c2sccc2n(Cc2ccc(F)cc2Cl)c1=O)NCc1ccc2c(c1)OCO2
  -18%	-16%
Cc1cccc(C)c1Nc1nnc(SCC(=O)Nc2sccc2C#N)s1
  -12%	i
Cc1ccc(SCC(=O)Nc2cc(S(=O)(=O)N3CCCCC3)ccc2C)cc1
  -24%	?
Cc1ccc(C)c(NC(=O)CN(C)C(=O)c2cccc(S(=O)(=O)N(C)C)c2)c1
  -4%	i
CC1CCCN(C(=S)SCC(=O)c2cc(Br)cc(Br)c2O)C1 (stereo not drawn)
  341%[activator]	50%[activator]
Cc1cc(C)n(CC(=O)c2cccc([N+](=O)[O-])c2)n1
  -10%	i
Cc1nc(SCC(=O)Nc2ccc3[nH]c(=O)[nH]c3c2)nc(C)c1C
  -13%	-14%
CCCc1oc(C(=O)O)cc1CN
  -10%	-5%
N#CNC(=Nc1cccc(F)c1)SCc1cccc(F)c1
  -1%	-10%
CC1(c2nnnn2-c2ccc3c(c2)OCCO3)CCC(=O)N1C1CCN(Cc2ccccc2)CC1 (stereo not drawn)
  -1%	5%
O=C(COc1ccc(S(=O)(=O)N2CCCC2)cc1)Nc1ccc(F)cc1
  -9%	-11%
COC(=O)c1[nH]nc2c1C(=O)N(C1CCCCC1)C2=O
  -12%	i
COc1cc(C(=O)Oc2cccc(C=O)c2)cc(OC)c1OC
  -6%	-14%
Cc1ccc(NC(=O)c2cccc(S(=O)(=O)N3CCCC3)c2)nc1
  -4%	-9%
O=C(CSc1nnc(C2CC2)n1CC1CCCO1)Nc1cccc(Cl)c1 (stereo not drawn)
  -2%	-27%
COc1ccc(CC(=O)NCC2CCCN(Cc3ccc(OC(F)(F)F)cc3)C2)cc1 (stereo not drawn)
  -20%	-12%
Cn1cnnc1SCC(=O)c1ccco1
  -15%	-4%
Cc1ccc(N2CCN(C(=O)c3cnn(-c4ccc(F)cc4F)c3C3CCN(C(=O)OC(C)(C)C)CC3)CC2)c(C)c1
  -23%	-23%
COc1cccc(/C=N/NC(=O)C(=O)N2CCCC2)c1OC
  -5%	i
Cc1ccc(CCNC(=O)c2cc3sccc3n2Cc2ccc(Cl)cc2)cc1
  1%	-2%
COCCN1C(=O)c2ccccc2C(C(=O)NCC2CCCO2)C1c1c[nH]c2ccccc12 (stereo not drawn)
  -13%	·
O=S(=O)(c1cc(Cl)ccc1Br)N1CCOCC1
  -5%	-6%
COCCCC1CCN(Cc2nc(Cc3ccccc3Cl)no2)CC1
  -9%	i
CCc1ccc(C2CC(=O)Nc3c2c(C)nn3-c2nc(C)cc(C)n2)cc1 (stereo not drawn)
  -17%	-10%
CCC/C=N/Nc1nc2ccccc2s1
  3%	-25%
COc1ccc(-c2nnn(CC(=O)c3c[nH]c4ccccc34)n2)cc1OC
  -13%	-10%
CN(C)N1C(=O)CC(C)(c2ccc([N+](=O)[O-])cc2)C1=O (stereo not drawn)
  4%	i
N#Cc1ccc(N2Cc3ccccc3C2=NC(=O)c2cccs2)cc1
  4%	i
CCN(CC)c1ccc(NC(=O)C2CCN(c3nnc(-n4cccc4)s3)CC2)c(C)c1
  -8%	-7%
Cc1ccc(-c2nnc(Sc3nc4ccccc4o3)c3ccccc23)cc1
  10µM*	10µM*
CSCCC(C(=O)NCc1ccccc1)n1c(C2CCN(C(C)=O)CC2)nc2ccccc21 (stereo not drawn)
  1%	-14%
COc1ccc(-c2cc(-c3ccc(C)cc3)n[nH]2)c(O)c1
  -30%	-26%
CC1CCCC(NC(=O)Cn2cc3c(n2)CCCCC3)C1C (stereo not drawn)
  -7%	-14%
Cc1cc(C)c(S(=O)(=O)N2CCCOC2CNC(=O)C(=O)NCCc2c[nH]c3ccccc23)c(C)c1 (stereo not drawn)
  ?	-23%
CCc1cc(C(=O)N2CCN(c3ccccc3)CC2)no1
  5%	-14%
COc1ccc(-c2nc(N)n(C(=O)c3ccco3)n2)cc1
  -16%	i
c1ccc2c(N3CCNCC3)cccc2c1
  -10%&-14%	-2%&-21%
CSCc1ccc(C(=O)N2CCC(N3CCC(C(=O)NC(C)C)CC3)CC2)o1
  -2%	-13%

Screening results (PubChem BioAssay)
